High-throughput results from PubChem.
Vaccinia Venus: qHTS for Stage-Specific Inhibitors of Vaccinia Orthopoxvirus: Venus Reporter Primary qHTS; Vaccinia virus Venus reporter expression, fluorescence; Potency, µM (doses to about 36.5 µM), without a hit: top-dose activity change, negative = inhibition, hits mostly inhibitors; hit rate 0.46% among 330,000; AID 720580, 2013; active means well fitted inhibition curve with a large enough effect; inconclusive means small, poorly fitted or top-dose-only effect; inactive means no such curve, though single readings can be large or run the other way; tested in A549 cells; further: nearly all actives have a fitted effect of over 30% in size; inactives centre near -10
Vaccinia mCherry: qHTS for Stage-Specific Inhibitors of Vaccinia Orthopoxvirus: mCherry Reporter Primary qHTS; Vaccinia virus mCherry reporter infection, fluorescence; about a quarter of the inactives have no number; Potency, µM (highest dose often 36.5 µM), for the others: top-dose activity change, negative = inhibition, most hits filed as inhibitors; hit rate 0.63% among 310,000; AID 720579, 2013; active = well fitted inhibition curve with a large enough effect; inconclusive = small, poorly fitted or top-dose-only effect; inactive = no such curve, though single readings can be large or run the other way; tested in A549 cells; further: nearly all actives have a fitted effect of over 35% in size; inactives centre near -10
* = called active by the depositor; i = inactive; ? = inconclusive; / = not tested or not shown; [ ] = remark or other dose. On the % scale 0 is the no-effect control and ±100 the full control effect; potency means the concentration at half of the fitted maximal effect.

COc1cccc(N2CCN(CC(=O)NC(=O)NC3CCCCC3)CC2)c1
  Vaccinia Venus = -16%
  Vaccinia mCherry = -20%

CC(C)(C)OC(=O)N/N=C/c1ccc(C(=O)O)cc1
  Vaccinia Venus = -3%
  Vaccinia mCherry = i

COc1ccc(C2/C(=C(/O)c3ccccc3)C(=O)C(=O)N2CO)cc1 (stereo unspecified)
  Vaccinia Venus = -17%
  Vaccinia mCherry = /

Cc1cc(OCC(=O)Nc2ccc(CN3CCOCC3)cc2)ccc1Cl
  Vaccinia Venus = -19%
  Vaccinia mCherry = -1%

COc1ccc(NC(=O)CSc2ccc3nnc(-c4ccccn4)n3n2)c(OC)c1
  Vaccinia Venus = -21%
  Vaccinia mCherry = -22%

Cc1ccccc1OCCSCc1nc2ccccc2[nH]1
  Vaccinia Venus = -15%
  Vaccinia mCherry = i

O=C(Oc1ccc(-c2nnco2)cc1)N1CCCCC1
  Vaccinia Venus = -11%
  Vaccinia mCherry = -22%

CC(=O)c1cc(-c2ccc(F)cc2)n(CCC(=O)NC2CCCCC2)c1C
  Vaccinia Venus = 3%
  Vaccinia mCherry = 0%

CCCN(C(=O)Cc1csc(-c2ccccc2)n1)C1CCS(=O)(=O)C1 (stereo unspecified)
  Vaccinia Venus = -5%
  Vaccinia mCherry = i

O=C(N=Nc1c(O)[nH]c2ccccc12)c1cccc(S(=O)(=O)N2CCCCC2)c1
  Vaccinia Venus = -5%
  Vaccinia mCherry = i

Cc1cc(NC(=O)CCN2CCN(Cc3ccccc3)CC2)ccc1Br
  Vaccinia Venus = -8%
  Vaccinia mCherry = -12%

COc1cccc(-n2ccnc2SCC(=O)N2CCc3ccccc32)c1
  Vaccinia Venus = -11%
  Vaccinia mCherry = /

Cc1cc2oc(=O)cc(CN(C)Cc3ccc(OC(F)F)cc3)c2cc1Cl
  Vaccinia Venus = 0%
  Vaccinia mCherry = -16%

NC(=O)COc1cccc2cccnc12
  Vaccinia Venus = -10%
  Vaccinia mCherry = -13%

O=C(Nc1cccc(F)c1)NC1(C(=O)N2CCN3CCCC3C2)CCCCC1 (stereo unspecified)
  Vaccinia Venus = -19%
  Vaccinia mCherry = /

COc1ccc2c(c1)C(C)=CC(C)(C)N2C(=O)Nc1ccccc1
  Vaccinia Venus = -5%
  Vaccinia mCherry = /

CC1CC(C)CN(CCOCCSc2ccc(Cl)cc2)C1 (stereo unspecified)
  Vaccinia Venus = -27%
  Vaccinia mCherry = i

CCOc1ccc(-n2nc3c(=O)[nH]nc(C)c3c2C)cc1
  Vaccinia Venus = -20%
  Vaccinia mCherry = -13%

Cc1cnnn1-c1cccc([N+](=O)[O-])c1
  Vaccinia Venus = -5%
  Vaccinia mCherry = i

CCCCC(=O)Nc1ccccc1C(=O)OCc1cc(=O)n2nc(C3CCCCC3)sc2n1
  Vaccinia Venus = -7%
  Vaccinia mCherry = -15%

CCOCCCNC(=O)CCCOc1ccccc1
  Vaccinia Venus = -12%
  Vaccinia mCherry = -9%

Cc1ccc(NC(=O)c2ccc(OC(=O)COc3ccc(Cl)cc3C)cc2)cc1
  Vaccinia Venus = 3%
  Vaccinia mCherry = -11%

COc1ccccc1C(=O)NCCC(=O)NNC(=O)c1ccccc1O
  Vaccinia Venus = -2%
  Vaccinia mCherry = -3%

C/C(=N\NC(=O)c1cccc(C)c1)c1cccc(NC(=O)c2ccco2)c1
  Vaccinia Venus = -10%
  Vaccinia mCherry = -19%

COc1ccc2[nH]cc(CCNC(=O)/C=C/[C@H]3O[C@@H](n4cnc5c(NC(=O)c6ccccc6)ncnc54)[C@H](O)[C@@H]3O)c2c1
  Vaccinia Venus = -12%
  Vaccinia mCherry = 5%

CCOc1ccc(-c2nc(CSCC(=O)NCc3ccco3)c(C)o2)cc1
  Vaccinia Venus = -28%
  Vaccinia mCherry = /

CCn1c(C)nc2cc(C(=O)NNC(=S)Nc3ccc(C)cc3)ccc21
  Vaccinia Venus = -13%
  Vaccinia mCherry = ?

O=C(c1ccc2c(=O)n(CC3CCCO3)c(=S)[nH]c2c1)N1CCN(C(=O)c2ccco2)CC1 (stereo unspecified)
  Vaccinia Venus = -16%
  Vaccinia mCherry = -24%

CC(=O)Nc1ccc(Oc2ccc3c(c2)C(=O)NC3=O)cc1
  Vaccinia Venus = -11%
  Vaccinia mCherry = 0%

CCN(C(=O)CSc1n[nH]c(-c2cccs2)n1)C1CCS(=O)(=O)C1 (stereo unspecified)
  Vaccinia Venus = 0%[7.34 µM]
  Vaccinia mCherry = 4%[7.34 µM]

COC(=O)CC(c1ccccc1F)N1Cc2ccccc2C1=O (stereo unspecified)
  Vaccinia Venus = -12%
  Vaccinia mCherry = 0%

COc1ccc(N/C=C/C(=O)c2ccc(Oc3ncccn3)cc2)cc1
  Vaccinia Venus = -3%
  Vaccinia mCherry = -12%

CCOC(=O)Cc1csc(NC(=O)C2C3C=CC(C3)C2C(=O)O)n1 (stereo unspecified)
  Vaccinia Venus = -11%
  Vaccinia mCherry = /

Cc1ccsc1/C=N/NC(=O)Cc1ccc(Cl)cc1
  Vaccinia Venus = -14%
  Vaccinia mCherry = -31%

CC(=O)c1c(C(C)=O)c(C)n(NC(=O)c2cccnc2)c1C
  Vaccinia Venus = -5%
  Vaccinia mCherry = -12%

Cc1ccc(/C=N/NC(=O)c2c(-c3ccccc3)noc2C)o1
  Vaccinia Venus = -3%
  Vaccinia mCherry = -13%

Cc1nnc(SCc2nc3sc4c(c3c(=O)[nH]2)CCCC4)[nH]c1=O
  Vaccinia Venus = 6%
  Vaccinia mCherry = -18%

CCOC(=O)N1CCN(S(=O)(=O)c2ccc(C(=O)Nc3nnc(CSC)o3)cc2)CC1
  Vaccinia Venus = -12%
  Vaccinia mCherry = -15%

Fc1ccc(CSc2nnc(-c3cc4c(s3)-c3ccccc3CC4)o2)cc1
  Vaccinia Venus = -9%
  Vaccinia mCherry = -10%

Cc1ccc(NC(=O)CN2C(=O)CCS(=O)(=O)c3ccccc32)cc1Cl
  Vaccinia Venus = -16%
  Vaccinia mCherry = -23%

COc1ccc(NC(=O)NC2(C(=O)N3CCN4CCCC4C3)CCCCC2)cc1 (stereo unspecified)
  Vaccinia Venus = -2%
  Vaccinia mCherry = -17%

Cc1ccc(S(=O)(=O)N(C)c2ccc(OCC(=O)O)cc2)cc1
  Vaccinia Venus = -15%
  Vaccinia mCherry = i

Cc1nc(-c2ccccc2)sc1-c1nc(-c2cccnc2)ncc1S(=O)(=O)c1ccccc1
  Vaccinia Venus = -15%
  Vaccinia mCherry = -3%

CCCc1nnc(NC(=O)CCC(=O)N2CCN(c3ccccc3)CC2)s1
  Vaccinia Venus = -17%
  Vaccinia mCherry = -14%

COCCNC(=O)Cn1cnc2ccc(S(=O)(=O)N3CCC(C)CC3)cc2c1=O
  Vaccinia Venus = -7%
  Vaccinia mCherry = -14%

CN(C)C(=O)c1ccc(NC(=O)COC(=O)CC23CC4CC(CC(Br)(C4)C2)C3)cc1
  Vaccinia Venus = -12%
  Vaccinia mCherry = -1%

Cc1noc(C)c1S(=O)(=O)N1CCCC(C(=O)NC2CCCCC2)C1 (stereo unspecified)
  Vaccinia Venus = 3%
  Vaccinia mCherry = -9%

CC1(c2nnc(-c3ccccc3)o2)CC(c2ccc(F)cc2)=NO1 (stereo unspecified)
  Vaccinia Venus = -3%
  Vaccinia mCherry = -7%

COc1cc(C(=O)N(Cc2ccc(C(C)C)cc2)C2CCS(=O)(=O)C2)cc(OC)c1OC (stereo unspecified)
  Vaccinia Venus = -16%
  Vaccinia mCherry = -9%

COc1cccc(COC(=O)C2CCN(C(=O)c3ccc(F)cc3)CC2)c1OC
  Vaccinia Venus = -13%
  Vaccinia mCherry = -12%

O=C1CCC(=O)N1c1ccc(CSc2nnnn2C2CCCCC2)cc1
  Vaccinia Venus = -11%
  Vaccinia mCherry = /

CCC(=O)N1Cc2cc(C(=O)NCC(F)(F)F)nc(-c3cccc(-c4cncnc4)c3)c2[C@H]1CCO
  Vaccinia Venus = -7%
  Vaccinia mCherry = -6%

O=S(=O)(NCC(c1ccccc1)N1CCc2ccccc21)c1ccc(Cl)cc1 (stereo unspecified)
  Vaccinia Venus = -9%
  Vaccinia mCherry = -16%

CCOC(CNC(=O)CN1C(=O)COc2ccc(S(=O)(=O)N3CC(C)CC(C)C3)cc21)OCC (stereo unspecified)
  Vaccinia Venus = -2%
  Vaccinia mCherry = -12%

C=CCC(NCc1ccccc1)c1ccc(C)o1 (stereo unspecified)
  Vaccinia Venus = -10%
  Vaccinia mCherry = -16%

Cc1c(C(=O)NC(=S)Nc2ccc3c4c(cccc24)CC3)cccc1[N+](=O)[O-]
  Vaccinia Venus = -15%
  Vaccinia mCherry = /

O=C(Nc1cccc(C(=O)Nc2cccc(C(F)(F)F)c2)c1)c1ccc(=O)[nH]c1
  Vaccinia Venus = -9%
  Vaccinia mCherry = -6%

O=C(N/N=C/c1ccc(O)c([N+](=O)[O-])c1)C(O)(c1ccccc1)c1ccccc1
  Vaccinia Venus = -14%
  Vaccinia mCherry = ?

CCc1ccc(CN(C)C(=O)CCc2nnc(COc3ccccc3)o2)cc1
  Vaccinia Venus = -17%
  Vaccinia mCherry = -3%

Cc1ccc(C)n1-n1c(C)nc2scc(-c3cccs3)c2c1=O
  Vaccinia Venus = -16%
  Vaccinia mCherry = /

O=C(NCc1ccco1)C1OCCc2ccccc21 (stereo unspecified)
  Vaccinia Venus = -6%
  Vaccinia mCherry = -15%

CCOc1ccc(NC(=O)CCc2nnc3ccc(N4CCC5(CC4)OCCO5)nn23)cc1
  Vaccinia Venus = -8%
  Vaccinia mCherry = -12%

Cc1cccc(NC(=O)N2CCC(NC(=O)C3CCCCC3)CC2)c1
  Vaccinia Venus = 7%
  Vaccinia mCherry = -1%

CCCCNC(=O)C1CCCN(c2nnc(C)c3c(C)n(-c4ccc(Cl)cc4)nc23)C1 (stereo unspecified)
  Vaccinia Venus = -16%
  Vaccinia mCherry = -17%

Already shown: two of the compounds above.
Cc1ccc(C)n1-n1c(C)nc2scc(-c3cccs3)c2c1=O
  Vaccinia Venus = -16%
  Vaccinia mCherry = /

O=C(NCc1ccco1)C1OCCc2ccccc21 (stereo unspecified)
  Vaccinia Venus = -6%
  Vaccinia mCherry = -15%

Another view of part of the listing above:
Values in the order: Vaccinia Venus	Vaccinia mCherry
- NC(=O)COc1cccc2cccnc12
  -10%	-13%
- O=C(Nc1cccc(F)c1)NC1(C(=O)N2CCN3CCCC3C2)CCCCC1 (stereo unspecified)
  -19%	/
- COc1ccc2c(c1)C(C)=CC(C)(C)N2C(=O)Nc1ccccc1
  -5%	/
- CC1CC(C)CN(CCOCCSc2ccc(Cl)cc2)C1 (stereo unspecified)
  -27%	i
- CCOc1ccc(-n2nc3c(=O)[nH]nc(C)c3c2C)cc1
  -20%	-13%
- Cc1cnnn1-c1cccc([N+](=O)[O-])c1
  -5%	i
- CCCCC(=O)Nc1ccccc1C(=O)OCc1cc(=O)n2nc(C3CCCCC3)sc2n1
  -7%	-15%
- CCOCCCNC(=O)CCCOc1ccccc1
  -12%	-9%
- Cc1ccc(NC(=O)c2ccc(OC(=O)COc3ccc(Cl)cc3C)cc2)cc1
  3%	-11%
- COc1ccccc1C(=O)NCCC(=O)NNC(=O)c1ccccc1O
  -2%	-3%
- C/C(=N\NC(=O)c1cccc(C)c1)c1cccc(NC(=O)c2ccco2)c1
  -10%	-19%
- COc1ccc2[nH]cc(CCNC(=O)/C=C/[C@H]3O[C@@H](n4cnc5c(NC(=O)c6ccccc6)ncnc54)[C@H](O)[C@@H]3O)c2c1
  -12%	5%
- CCOc1ccc(-c2nc(CSCC(=O)NCc3ccco3)c(C)o2)cc1
  -28%	/
- CCn1c(C)nc2cc(C(=O)NNC(=S)Nc3ccc(C)cc3)ccc21
  -13%	?
- O=C(c1ccc2c(=O)n(CC3CCCO3)c(=S)[nH]c2c1)N1CCN(C(=O)c2ccco2)CC1 (stereo unspecified)
  -16%	-24%
- CC(=O)Nc1ccc(Oc2ccc3c(c2)C(=O)NC3=O)cc1
  -11%	0%
- CCN(C(=O)CSc1n[nH]c(-c2cccs2)n1)C1CCS(=O)(=O)C1 (stereo unspecified)
  0%[7.34 µM]	4%[7.34 µM]
- COC(=O)CC(c1ccccc1F)N1Cc2ccccc2C1=O (stereo unspecified)
  -12%	0%
- COc1ccc(N/C=C/C(=O)c2ccc(Oc3ncccn3)cc2)cc1
  -3%	-12%
- CCOC(=O)Cc1csc(NC(=O)C2C3C=CC(C3)C2C(=O)O)n1 (stereo unspecified)
  -11%	/
